Assay outcomes as filed in PubChem.
Mtb hypoxia inh = PubChem AID 1159583 | 0.1% of 300,000 active | M. tuberculosis hypoxia-regulated fluorescent reporter, fluorescence | fluorescence inhibition, % (concentration not given with the values);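 active means 35 to 45% if threefold the growth effect, above 45% if 1.5-fold the growth effect; inactive means the rest, general growth blockers included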;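 further: wells of about 50 µL received 100 nL stock; 0% = vehicle wells and 100% = reference inhibitor wells; whole bacteria with a GFP reporter of the hypoxia response; strong numbers were not always called active; many hits fall short of the cut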
Bead autofluor = compound fluorescence in toxin protease inhibitor counterscreen; AID 624483; 3.1% of 360,000 active; fluorescence intensity (test concentration not listed); compound autofluorescence counterscreen, microsphere flow cytometry; stronger effect = higher value;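 active means at least 3 SD above the mean of all compounds, about 16000 in these data; inconclusive means too few beads counted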;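 further: 100 nL of 1 mM stock went into each well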
ugtP null kill = growth inhibition of ugtP-null S. aureus, primary screen, RN4220 ugtP deletion, OD600; 16 h; some inactives read as strong as hits; growth inhibition, % (test concentration not listed); 0.54% of 330,000 active; AID 1259309, 2017;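 active means z-score under -3 and OD600 up to 0.15 on both plates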;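 further: plate controls were untreated wells for no effect and antibiotic for full effect; wells of about 80 µL received 100 nL stock; the first replicate is given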
Sa RN4220 lethal = growth inhibition of S. aureus RN4220, primary screen, OD600 | 16 h | inhibition, % (test concentration not listed) | 0.33% of 330,000 active | AID 1259311, 2017;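 active means z-score of -3 or lower and OD600 up to 0.18 on both plates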;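 further: plate controls were untreated cells for no effect and reference antibiotic for full effect; stock transfer was 100 nL into about 80 µL; one replicate is shown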
BJeLR viability = MLPCN primary cell-based screen for lethality selective to Ras in HRASV12 cells | BJeLR (HRASV12) viability, CellTiter-Glo ATP luminescence, 48 h; reference of the scale not given here | inhibition, % (no concentration beside the values) | 0.17% of 300,000 active;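 active means replicate mean above 50%; inconclusive means above 50% but judged a plate artefact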;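 further: 50 nL library stock added to about 25 µL; numbers are from one replicate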
PrP UTR inh = inhibition of PrP 5' UTR reporter expression | AID 488862, 2010 | cell-based PrP 5' UTR mRNA reporter, plate reader | 0.35% of 340,000 active | inhibition, % (concentration not given with the values);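 active means every replicate at 50% or more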;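 further: 0 = median of the neutral control wells; tested in H4 reporter cells; numbers are from one replicate; inactives centre near -14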
Mtb hypoxia inh growth = also measured in Mtb hypoxia inh; calls as there; growth inhibition, %; measured here: M. tuberculosis growth (absorbance);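 0% = vehicle and 100% = reference antibiotic; read after six days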
* hit, by the source's call; u = inconclusive; x = not tested or not shown. Rows are unselected; overall some 4% were active at least once.

Fields – BJeLR viability, ugtP null kill, Bead autofluor, Mtb hypoxia inh growth, Sa RN4220 lethal, PrP UTR inh, Mtb hypoxia inh
Cc1cc[n+](-c2nc([O-])sc2C=NNc2ccc([N+](=O)[O-])cc2)cc1
 : x, 6, x, 4, 8.0, x, 18
COc1ccc2[nH]c(=O)c(CN(C(=O)c3ccncc3)C(C)(C)C)cc2c1
 : -4, -5, 2647, 1, 1.8, -12, 1
O=C(COc1ccc(Br)cc1Br)NC1CCS(=O)(=O)C1 (configuration not stated)
 : 11, 1, u, 8, 1.9, -14, 13
Cc1ccc(NC(=O)CN(C)C(=O)COC(=O)CCS(=O)(=O)c2ccc(C)cc2)cc1
 : 2, -5, 4287, -3, 4.5, -23, 2
O=C(CC1CS(=O)(=O)CC1CC(=O)Nc1ccc2c(c1)OCCO2)Nc1ccc2c(c1)OCCO2 (configuration not stated)
 : 5, 1, 4368, 13, 8.6, 52, 2
Cc1cc(C)n2nc(-c3sccc3-n3c(C)ccc3C)cc2n1
 : 1, 9, 7469, x, 0.7, 5, x
Cc1nc(NC(=O)Nc2ccc(Cl)cc2)sc1C
 : 3, -1, 3416, 7, 6.1, -60, 13
O=C(c1ccccc1)c1nnc(-c2ccncc2)o1
 : 11, 7, 3597, x, 6.5, -31, x
CC1CCCC(C)N1CCCNC(=O)Cn1ncc2c([nH]c3ccccc32)c1=O (configuration not stated)
 : 9, 10, 5498, 5, 5.1, -21, 17
COc1ccc(/C=C/C2=NC(=C\N(C)C)/C(=O)O2)cc1
 : -5, x, 3386, x, x, -55, x
CC(C)(C)c1ccc(C(=O)NCCC(=O)Nc2cc(Cl)ccc2N2CCOCC2)cc1
 : x, -1, u, 4, 2.0, -7, -6
O=C(Nc1cccc(C(F)(F)F)c1)c1ccc2nc(N3C(=O)CCC3=O)sc2c1
 : -7, -5, 22304*, 2, -1.7, -9, 1
O=C(NC1CCCCC1)C1CCN(c2nccs2)CC1
 : 6, 12, 3954, x, 1.8, -18, x
O=C1COc2ccc(C(=O)COC(=O)C3CC(O)CN3S(=O)(=O)c3ccc(Cl)cc3)cc2N1 (configuration not stated)
 : -1, 6, 4582, 8, 3.9, -1, 16
CCCCn1c(=O)c(CCC(=O)OCC(=O)NC(C)c2ccccc2)nc2ccccc21 (configuration not stated)
 : -1, 7, 2573, -5, -0.9, -12, 5
COC(=O)c1ccc(CNC(=O)c2cc(COc3cncc(Cl)c3)on2)cc1
 : -10, -3, 5913, 10, -5.2, -9, -4
CCN1C(=O)N(S(=O)(=O)c2ccc(C)cc2)C(c2ccccc2)C(C(=O)OC)=C1C (configuration not stated)
 : x, 6, x, 2, 2.3, x, -1
CCOC(=O)c1sc2nc(CC(=O)OC)nc(N3CCN(c4ccccn4)CC3)c2c1C
 : -5, 6, 8634, 3, -2.9, -52, 10
CCC(=O)Nc1cccc(C(=O)/C=C/c2ccc(F)cc2)c1
 : 5, 6, 2177, 12, 8.3, -17, 5
COC(=O)C(CC(=O)c1ccc(Br)cc1)n1nc(C)cc1C (configuration not stated)
 : 0, 3, 3670, 1, 2.7, -22, 0
COc1ccc(CCNC(=O)CSc2nc(N)c3c(C)c(C)oc3n2)cc1OC
 : -4, -6, 2753, 14, -7.4, -18, 11
CN1CCN(C(=O)c2cccc(COc3cc(Cl)ccc3Cl)c2)CC1
 : 1, 3, 22814*, 9, 9.9, -12, 6
Cc1cc(C(=O)N/N=C/C=C/c2ccccc2[N+](=O)[O-])c(C)o1
 : -3, x, 4296, x, x, -5, x
CCOc1ccc(NC(=O)NNC(=O)C(C)Oc2ccccc2OC)cc1 (configuration not stated)
 : -4, 0, 5883, 5, 1.0, 1, 14
C/C(=N\NC(=O)c1csc(C)c1C)c1ccc(C)s1
 : 10, x, 7204, x, x, -12, x
Cc1cc(Cl)ccc1OCC(=O)Nc1cccc(S(=O)(=O)N2CCCC2)c1
 : x, -15, 3423, 2, 8.2, -12, 12
COC(=O)c1cccc(NC(=O)CSc2nnnn2C)c1
 : 3, 2, 2755, x, 2.3, -4, x
O=C(CCl)Nc1ccc(Oc2cnc3ccccc3n2)cc1
 : -8, -10, 21837*, -3, 2.1, 8, 10
CCOc1ccc(S(=O)(=O)N2CCCC(C(=O)NCc3cccnc3)C2)cc1 (configuration not stated)
 : 6, 2, 5178, 9, 3.0, -14, 11
Cc1cc(C)cc(-n2c(C)cc(C=NNC(=O)CSc3ncccn3)c2C)c1
 : x, 10, x, 2, 0.5, x, 5
CN(Cc1cccs1)C(=O)COc1cccc(-n2cnnn2)c1
 : 1, 0, 3745, 6, 1.9, -12, -1
Fc1ccc(-c2nnc(NC3=NCCCCC3)o2)cc1
 : 17, 5, 2319, x, -0.4, 78*, x
O=C1NCCCC1C(=O)NN=Cc1ccccc1 (configuration not stated)
 : x, 4, x, 10, 0.3, x, 5
CC(=O)Nc1sc(C)c(C)c1C(=O)OCC(=O)Nc1cccc(C)c1
 : x, -10, 4003, 12, 4.2, -17, 2
O=C(c1cc2ccccc2oc1=O)N1CCCCCCC1
 : -6, 8, 3241, 0, 2.3, -9, 6
CC1(C)OC(=O)C(=NNc2ccc(C(=O)O)cc2)C(=O)O1
 : -1, -1, 4015, 14, 6.6, -40, -8
CN(Cc1nc2ccccc2c(=O)[nH]1)C(=O)c1ccccc1OCc1ccc(Cl)cc1
 : x, 9, 9012, 8, 13, -41, 11
CC(C)OCCCNC(=O)COc1ccc2oc3c(c2c1)CCCC3
 : 3, 8, 6805, 1, 4.9, -4, 1
Cc1ccc(NCC(=O)Nc2cccc(S(=O)(=O)N(C)C)c2)c(Cl)c1
 : -3, -5, 2464, 5, 2.8, -13, 7
O=c1ccc(S(=O)(=O)N2CCC(Cc3ccccc3)CC2)c[nH]1
 : -13, 0, 4233, -1, -1.8, -7, -5
CCN=C1SC(CC(=O)NC(C)C)C(=O)N1CC (configuration not stated)
 : 11, 3, 2640, x, 0.0, -19, x
O=C(Nc1ccccc1Cl)c1cccc(COc2cc(Cl)ccc2Cl)c1
 : -5, -6, 4935, 0, 4.9, -56, -4
CC1(C)C2CCC1(C)C(OC(=O)C[n+]1ccccc1)C2 (configuration not stated)
 : 13, 3, 4862, 3, 5.8, -5, 12
Cc1ccc(C)c(SCC(=O)N(C)CC(=O)Nc2ccc(N3CCOCC3)cc2)c1
 : 1, 15, u, 5, -0.8, -24, 3
O=C(c1cc(-c2cccnc2)nc2ccccc12)N1CCN(S(=O)(=O)c2cccs2)CC1
 : x, -2, u, 4, -1.1, 9, -10
CCOc1cc(C(=O)O/N=C(\N)c2ccc([N+](=O)[O-])cc2)cc(OCC)c1OCC
 : 2, 15, 4209, 7, 9.0, -24, 6
O=C(O)c1c(-n2cccc2)sc2c1CCCC2
 : 5, 14, 4641, 7, 9.3, -21, 15
Cc1ccc(C2Nc3ccccc3C(=O)N2Cc2ccco2)cc1 (configuration not stated)
 : -16, 11, 3661, 0, 2.3, -3, 6
O=[N+]([O-])c1cc(S(=O)(=O)NC2=NCCCCC2)ccc1Cl
 : -3, -8, 4664, 5, 7.6, 0, 3
O=C(COc1ccc([N+](=O)[O-])cc1)Nc1ccc2c(c1)CCC2
 : x, -11, 3580, 6, -7.9, -16, -5
C=CCc1cccc2cc(C(=O)N(C)C)c(=O)oc12
 : -5, 2, 10236, 7, 3.4, -21, 13
COc1ccc(CCNC(=O)c2c(C)nn(-c3ccccc3)c2Cl)cc1OC
 : -3, 6, 5521, 9, -1.8, -11, 1
C[n+]1cn(N=Cc2ccccc2)c2ccccc21
 : x, 7, x, 8, 3.1, x, 11
Cc1cc(C(=O)N/N=C2\CC(=O)CC(C)(C)C2)c(C)n1-c1ccccc1
 : 9, x, 2024, x, x, -27, x
Cc1cc(C)cc(N2CCCn3c2nc2c3c(=O)n(CC(=O)OCc3ccccc3)c(=O)n2C)c1
 : -10, -6, 10991, 3, -2.2, -4, 1
CC(=NNC(=O)c1cccs1)c1ccc(C(=O)O)s1
 : x, 7, x, -2, 2.7, x, 6
Cc1onc(-c2c(F)cccc2Cl)c1C(=O)NCCO
 : -2, -3, 4332, 5, 7.8, -17, 16
O=c1[nH]c(=O)n([C@H]2C[C@H](O)[C@@H](CO)O2)cc1Br
 : x, 10, 5679, 5, 4.7, -73, 10
COc1ccc(/C=C/C(=O)NC(=S)N2CCN(c3ccccn3)CC2)cc1
 : 8, 16, 5873, -8, 5.0, x, -3
Cc1nnc(SCCn2c(N(C)Cc3ccccc3)nc3c2c(=O)[nH]c(=O)n3C)s1
 : 1, -5, 4748, 4, 4.6, -1, -1

Continued:
Fields – BJeLR viability, ugtP null kill, Bead autofluor, Mtb hypoxia inh growth, Sa RN4220 lethal, PrP UTR inh, Mtb hypoxia inh
Cc1cc(NC(=O)CCc2ccc(C)o2)no1
 : 17, 6, 3757, x, -2.3, -22, x
O=C(NCc1ccccc1F)C1CCCN(C(=O)NC2CCCCC2)C1 (configuration not stated)
 : -19, 6, u, 8, -0.9, -11, 5
CSc1ccccc1NC(=O)Cn1ccsc1=N
 : -6, 15, 4950, 7, 5.6, -27, -1
O=C(c1cn(-c2ccccc2)nc1-c1cccc(Br)c1)N1CCOCC1
 : -5, -1, 2637, 5, 1.5, -12, -2
Cc1c(Cl)cccc1NC(=O)C1COc2ccccc2O1 (configuration not stated)
 : -14, 9, 3187, -4, 2.5, -29, 3
Cc1ccc(OCCSCc2nc3ccccc3[nH]2)cc1
 : -2, -1, 2896, 9, -8.4, -10, 1
Cc1ccc(-n2c(SCC(=O)NN=Cc3ccccc3C(=O)O)nnc2-c2ccc(Cl)cc2)cc1
 : x, 4, x, 3, 6.4, x, 9
CCN1CCN(C(c2ccccc2)c2nnnn2Cc2ccc3c(c2)OCO3)CC1 (configuration not stated)
 : -2, 13, 4156, 6, 3.5, -21, 8
COCc1ccc(CN2CCCCC2C(=O)Nc2ccc(Oc3ccccc3)nc2)o1 (configuration not stated)
 : -6, 4, 6289, 4, 2.1, -6, 0
CC1(CCc2ccccc2)NC(=O)N(CC(=O)Nc2ccc(S(N)(=O)=O)cc2)C1=O (configuration not stated)
 : -20, 5, 4777, 0, 4.6, -12, 7
OC(CNCc1ccncc1)c1ccccc1 (configuration not stated)
 : -10, 0, 3616, -12, -2.0, -2, 0
N#Cc1ccc(NC(=O)CSc2n[nH]c(=O)n2C2CC2)cc1
 : x, 4, 3741, 2, 2.9, -17, 1
O=C(/C=C/c1ccccc1)NC1CCSC1=O (configuration not stated)
 : -2, 11, 2494, -1, 3.9, -14, 3
COc1ccccc1CNCC(=O)Nc1cc(S(=O)(=O)N2CCOCC2)ccc1Cl
 : x, 9, 9481, 1, 6.9, -18, 4
O=C1C2CCN(CC2)C1Cc1ccccc1O (configuration not stated)
 : 2, 5, x, 11, 12, x, -6
O=S1(=O)CCC(=NNc2ccccn2)c2cc(F)ccc21
 : x, 5, x, 5, 11, x, 3
CS(=O)(=O)Nn1cnc2ccccc2c1=O
 : 1, 3, 3713, x, 4.0, -2, x
Fc1ccc(Oc2nnnn2-c2ccccc2)cc1
 : 7, 4, 4703, -3, 2.1, 3, 4
COc1ccc2nc(C)cc(N3CCOCC3)c2c1
 : 3, 0, 19626*, 13, 1.9, -4, 1
Clc1ccc(COn2c(-c3ccc(Cl)cc3)nc3ccccc32)cc1
 : -5, -11, 21296*, 8, -1.5, -24, 5
CC(=O)C1C(c2ccc(Br)cc2)c2c(noc2C)CC1(C)O (configuration not stated)
 : 5, 3, 4008, 3, 0.6, -4, 12
O=C(c1ccco1)N1CCN(C(=S)NCc2ccc(F)cc2)CC1
 : -8, 4, 5581, -6, -2.2, -14, 9
CCOC(=O)c1sc(NC(=O)CCN2CCOCC2)c(C(=O)OCC)c1C
 : -1, 3, 3252, 6, 11, -12, 10
COc1ccc2ccc(Oc3ncccn3)cc2c1
 : -9, 1, 3660, 11, 3.4, -16, 9
O=C(NCc1ccc(F)cc1)c1c(O)c2cccc3c2n(c1=O)CCC3
 : -2, -3, 3498, 3, 3.2, -11, 10
CC1CCCCN1S(=O)(=O)c1cccc2cccnc12 (configuration not stated)
 : 0, 8, 5085, x, 8.9, -25, x
Cc1ccc2c(c1)cc(CN(Cc1cccnc1)C(=O)c1ccccc1)c1nnnn12
 : -7, 1, 4070, 6, 2.3, -24, -12
CCC(CC)C(=O)Nc1ccc(C(=O)Nc2cc(C)on2)cc1
 : 8, 9, 4264, 6, 5.3, -35, 9
O=C(CSc1nc2cc(Cl)ccc2s1)c1ccco1
 : -9, 19, 10741, 21, 25, -30, 8
FC(F)(F)c1cccc(CNC2c3ccccc3-c3ccccc32)c1
 : 2, 31, 3955, 4, 2.3, -11, 22
COc1ccccc1CCNCc1cccc(C(F)(F)F)c1
 : -7, 6, 3139, 4, 0.9, -19, -2
